# Source: PubChem (National Center for Advancing Translational Sciences (NCATS))
# TRPML1 blocker = qHTS for Inhibitors of the Human Mucolipin Transient Receptor Potential 1 (TRPML1); TRPML1-inducible cells, Ca2+ dye fluorescence, FDSS; active compounds read low; inhibition of EC80 agonist-evoked calcium signal; activity change, negative = inhibition, % (no concentration beside the values); 390,000 tested, 0.02% active; in the data active means activity change below about -50%; inconclusive means about -30% to -50%; inactive means above about -30%;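 further: stimulus is agonist 54-4 at its EC80 concentration; on the % scale 0 is the no-effect control and ±100 the full control effect; compound concentration not given in the record; the text of the record puts the active cut at -80%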
# Target sequence (Q9GZU1 whole entry, looked up): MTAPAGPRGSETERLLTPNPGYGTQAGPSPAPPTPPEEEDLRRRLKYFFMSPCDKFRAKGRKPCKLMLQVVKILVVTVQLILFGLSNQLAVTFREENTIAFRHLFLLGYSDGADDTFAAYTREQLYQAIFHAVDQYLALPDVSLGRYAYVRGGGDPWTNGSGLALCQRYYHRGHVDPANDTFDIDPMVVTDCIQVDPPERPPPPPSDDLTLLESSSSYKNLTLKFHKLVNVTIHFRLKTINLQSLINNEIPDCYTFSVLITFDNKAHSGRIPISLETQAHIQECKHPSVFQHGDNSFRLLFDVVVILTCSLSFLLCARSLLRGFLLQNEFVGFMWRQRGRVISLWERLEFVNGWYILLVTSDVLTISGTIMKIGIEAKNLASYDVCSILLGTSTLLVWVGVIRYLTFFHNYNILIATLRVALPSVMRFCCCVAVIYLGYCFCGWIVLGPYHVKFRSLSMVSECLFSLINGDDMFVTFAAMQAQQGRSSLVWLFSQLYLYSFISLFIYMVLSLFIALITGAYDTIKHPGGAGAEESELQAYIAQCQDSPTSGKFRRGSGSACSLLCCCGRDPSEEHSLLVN
#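 Tet-induced TRPML1-DL cells loaded with Ca8 no-wash calcium dye were read kinetically on FDSS. Compound addition was followed by EC80 agonist 54-4 (4 uM final); inhibition was read over 110 s.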
# Menin MLL FP FL = qHTS Assay for Inhibitors Targeting the Menin-MLL Interaction in MLL Related Leukemias: Competition With Fluorescein Labeled MLL-derived Peptide; Fluorescence polarization, fluorescein-MLL peptide displacement from menin; FP activity change, % at 61.4 µM; 290,000 tested, under 10 active; inconclusive = falling polarisation curve, or a change in total fluorescence; inactive = total fluorescence flat and polarisation flat or rising; no compound was filed as active; the % refers to the polarisation; negative = inhibition;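 further: % of control where 0% means no effect; inhibitors lower the polarisation; unlabelled MLL peptide was the positive control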
# PINK1 modulator = A Quantitative High throughput Screen to Identify Chemical Modulators of PINK1 Expression; PINK1 immunofluorescence, high-content cytometry, 24 h; Potency, µM (doses to about 76.6 µM), for inactives: at the highest dose activation (PINK1 increase), hits mostly activators; 410,000 tested, 0.2% active; active = well fitted activation curve with a large enough effect; inconclusive = small, poorly fitted or top-dose-only effect; inactive = flat fitted curve, though single readings scatter; cell line not stated here;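 further: potency means the concentration at half of the fitted maximal effect; % of control where 0% means no effect; nearly all actives have a fitted effect of over 65% in size; a mitochondrial uncoupler was the plate control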
#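 PINK1 protein level read as immunofluorescence by microplate cytometer in a fixed, stained stable cell line after 24 h exposure to five compound concentrations, with CCCP as control.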
# ClpP mod = qHTS Assay for Activators of ClpP. Potency, µM (doses to about 57.5 µM), for inactives: top-dose activity change, negative = active. purified B. subtilis ClpP, FRET peptide cleavage, 20 min. AID 651965, 2013. 340,000 tested, 1.9% active; active = well fitted falling curve with a large enough effect; inconclusive = small, poorly fitted or top-dose-only effect; inactive = no such curve, though single readings can be large or run the other way; further: potency means the concentration at half of the fitted maximal effect; the source files actives as falling curves though it sought activators and does not explain the sign; nearly all actives have a fitted effect of over 65% in size; many hits overshoot -100%
# Target sequence (P80244 whole entry, looked up): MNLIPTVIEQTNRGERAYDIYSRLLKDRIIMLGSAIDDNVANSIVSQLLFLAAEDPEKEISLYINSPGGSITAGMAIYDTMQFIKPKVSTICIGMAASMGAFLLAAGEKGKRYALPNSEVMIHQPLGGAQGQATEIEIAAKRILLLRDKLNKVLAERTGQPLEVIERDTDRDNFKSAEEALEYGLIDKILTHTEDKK
#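 Purified B. subtilis ClpP, 10 microg/mL final in Tris/HCl pH8 with KCl, BSA, glycerol and Tween-20, cleaved an Abz/nitrotyrosine-quenched decapeptide. Fluorescence (ex 320, em 430) was read at 0 and 20 min at room temperature. Delta was normalized to 5.8 microM ADEP and DMSO/no-enzyme controls.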
# Sfp inh = qHTS Assay for Inhibitors of Bacillus subtilis Sfp phosphopantetheinyl transferase (PPTase); 4'-phosphopantetheinyl transferase ffp (Bacillus subtilis), Q9F4F7; Biochemical Sfp PPTase activity, qHTS; Potency, µM, for the others: max response, negative = inhibition, hits mostly inhibitors; 310,000 tested, 3.5% active; active means well fitted inhibition curve with a large enough effect; inconclusive means small, poorly fitted or top-dose-only effect, or another doubt; inactive means no such curve, though single readings can be large or run the other way;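 further: the enzyme is Sfp with the accession as filed and its product quenches rhodamine fluorescence; potency means the concentration at half of the fitted maximal effect; 0% = enzyme reaction without inhibitor and -100% = no enzyme wells; top concentration of the series not given in the record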
#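 Buffer: 50 mM Hepes-Na pH 7.6, 10 mM MgCl2, 0.01% Nonidet P-40, 0.01% BSA. Enzyme 15 nM, pre-exposed to compound 15 min; substrates then added and fluorescence change tracked over 30 min.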
# TRPML1 ag = qHTS for Agonists of the Human Mucolipin Transient Receptor Potential 1 (TRPML1); Mucolipin-1 (Homo sapiens), Q9GZU1; TRPML1-expressing cells, Ca2+ dye fluorescence, FDSS; host cell line not named in the record; reference of the full effect not given here; activation, % (concentration not given with the values); 410,000 tested, 0.12% active; in the data active = activation above about 50%; inconclusive = about 30% to 50%; inactive = below about 30%; further: 0% is about no effect; the text of the record puts the active cut at 80%
#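 Kinetic FDSS Ca2+ read in Tet-induced TRPML1-DL cells (ABD Ca8 dye plus quencher, 45-90 min RT loading): baseline, then compound, then 110 s agonist window; EC80 agonist 54-4 at 4uM final added afterwards for a 110 s antagonist window.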
# TRPV1 PAM = HTS Assay for Compounds that Act as Potentiators of the Vanilloid Receptor 1. 320,000 tested, 0.02% active. potentiation, % at 8.33 µM. TRPV1-expressing cells, Fluo-8 calcium influx, capsaicin EC20 potentiation; host cell line not named in the record; control for the full effect not named in the record; active means potentiation above 80%; inconclusive means 30% to 80%; inactive means below 30%; further: 0% is about no effect
#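 TRPV1-expressing cells were cultured overnight at 35.5C and loaded with Fluo-8 calcium dye for 40 to 90 min at room temperature. After a 10 s baseline, compound was added and calcium influx was read kinetically for 3 min (ex 480/em 520 nm).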
# Starred values were filed as active, the others as inactive; ? = inconclusive; nt = not tested or not shown; & = joins results of further samples; [ ] = dose if it differs, or a comment.
item	SMILES	TRPML1 blocker	Menin MLL FP FL	PINK1 modulator	ClpP mod	Sfp inh	TRPML1 ag	TRPV1 PAM
1	CCOc1ccc(N2C(=O)C(Cl)=C(Nc3ccccc3O)C2=O)cc1	-5.8	5.7	nt	84.6%	39.8µM*	2.3	-2.8
2	CCn1c(SCC(=O)NC(C)C)nnc1-c1cccs1	-6.5	13.0	-0.3%	-6.3%	11.7%	0.1	?
3	NC(=O)C1(S(=O)(=O)c2ccccc2)CCCCC1	-0.1	-0.7	-1.0%	0.9%	9.3%	0.2	-3.0
4	COc1cccc(CNC(=O)C2=C(C)C(=O)OC23CCN(C(C)=O)CC3)c1OC	5.3	nt	1.4%	0.2%	nt	1.8	nt
5	Cc1cc(OCc2cc(C(=O)N(C)CCOc3ccccc3)no2)cc(C)c1Cl	-8.5	2.3	2.7%	-2.2%	10.4%	7.0	-4.4
6	Cc1cccc(C(C)C)c1NC(=O)COC(=O)CNS(=O)(=O)c1ccccc1	25.9	nt	3.5%	-1.1%	nt	0.5	4.1
7	CCN(CC(=O)NC(=O)NCc1ccccc1)Cc1nc2ccccc2c(=O)[nH]1	-16.3	-0.6	-0.5%	nt	-53.0%	-0.7	-6.2
8	Cc1ccc(-n2cc(CN3CCN(Cc4nccn4C)CC3)c(-c3cccc(C)c3)n2)cc1	4.2	0.9	-0.3%	nt	-1.5%	-0.2	3.1
9	Cc1cc(C)cc(NC(=S)NCc2ccc(F)cc2)c1	30.4	1.0	3.0%	0.8%	1.4%	0.2	-16.7
10	CCN(C(=O)Cn1cnc2ccccc2c1=O)C1CCS(=O)(=O)C1 (stereo not drawn)	-12.7	nt	-0.2%	nt	nt	-0.3	9.4
11	COc1ccccc1/C=C/C=N/n1c(-c2ccc(F)cc2)n[nH]c1=S	37.5	3.8	14.5%	nt	-16.3%	4.9	nt
12	Cc1ccc(SCC(=O)OCC(=O)NCCNC(=O)COC(=O)CSc2ccc(C)c(C)c2)cc1C	3.4	nt	1.1%	-1.6%	nt	2.3	-1.1
13	COc1ccc(CN2CCN(Cc3ccccc3F)CC2)cc1OC	nt	0.1	-0.2%	-0.9%	?	nt	4.2
14	CCN(CC)C(=O)c1[nH]cnc1C(=O)Nc1ccon1	-9.0	nt	1.7%	0.8%	nt	0.4	12.3
15	COc1ccc(Nc2nnc(C)c3ccccc23)cc1C(N)=O	-5.9	1.4	-2.0%	2.1%	2.1%	2.5	-12.5
16	O=C(O)C(O)c1ccccc1 (stereo not drawn)	-0.5&19.7	-5.2&-19.5&-3.2&-4.2	2.8%&1.0%	-0.8%&-0.2%	0.4%&12.0%&13.3%&16.2%	0.5&0.5	3.4&13.6
17	COc1cc(/C=C2\C(=O)NN(c3ccccc3)C2=O)cc([N+](=O)[O-])c1O	14.1	7.3	0.4%	nt	?	-0.3	-2.4
18	Cc1nn(-c2cc(Cl)ccc2Cl)c(C)c1C(=O)O	-2.7	4.7	1.9%	nt	-4.1%	-0.5	7.2
19	COC(=O)C1=C(CCc2ccccc2)NC(=O)NC1c1ccc([N+](=O)[O-])cc1 (stereo not drawn)	-13.4	nt	1.9%	-1.0%	nt	-0.6	nt
20	COc1ccc(Cl)cc1NC(=O)CN(C)C(=O)c1n[nH]c2ccccc12	-5.4	nt	2.6%	nt	nt	0.4	27.4
21	CCN(c1ccccc1)S(=O)(=O)c1ccc(OC)c(N=N/C(C(=O)Nc2ccccc2)=C(/C)O)c1	-7.4	-4.1	2.2%	nt	4.1%	1.2	1.8
22	Cc1ccc(N2CCN(c3ccc(NCc4nc5ccccc5n4C)cc3)CC2)cc1	-7.4	0.6	6.4%	-21.5%	?	-0.5	6.9
23	Brc1cccc(-c2nc3cccnc3nc2-c2cccc(Br)c2)c1	-1.7	1.0	5.2%	-2.3%	-9.1%	1.4	-0.5
24	O=C1C2C(c3ccccc3)CC=CC2C(c2ccoc2)N1Cc1ccccc1 (stereo not drawn)	66.8	-8.7	nt	nt	-22.7%	3.6	nt
25	CCCCc1nnc(NC(=O)c2oc3ccc(OC)cc3c2C)s1	-1.5	nt	11.0%	31.6µM*	nt	0.0	?
26	CN(CC(=O)Nc1cccc(F)c1)C(=O)CCSc1ccc(F)cc1	-7.5	nt	5.1%	1.1%	nt	0.1	-9.5
27	CCOc1ccc(CNC(=O)C2CCN(S(=O)(=O)N3CCC(C)CC3)CC2)cc1OC	-3.8&0.9	nt	0.6%&7.9%	-0.1%&1.7%	nt	-0.5&-0.4	nt
28	CC(=O)N/C(=C/c1cccnc1)C(=O)Nc1ccc(Cl)cc1	19.3	nt	0.1%	-3.6%	nt	0.3	?
29	CC(NC(=O)Cn1c(-c2cccs2)cc2cc(F)ccc21)c1ccccc1 (stereo not drawn)	-5.3	nt	3.6%	28.2µM*	nt	1.0	nt
30	CC1(C)CC(=O)c2c(oc3ccc(NS(=O)(=O)c4cccc5cccnc45)cc23)C1	0.4	1.9	-2.7%	nt	10.8%	-0.8	1.3
31	COC(=O)c1c(NC(=O)CCCOc2ccc(C)cc2)sc2c1C(C(=O)OC)CC2 (stereo not drawn)	8.5	nt	0.3%	-9.2%	nt	3.5	28.6
32	O=C(c1cncc(Br)c1)N1CCN(S(=O)(=O)c2ccccc2C(F)(F)F)CC1	33.3	0.2	1.7%	-0.9%	-0.8%	-0.8	-7.7
33	CCc1ccc2nc3n[nH]c(N)c3cc2c1	-6.4	0.2	-5.5%	-1.0%	11.6%	-1.0	0.5
34	O=C(CCC(=O)N1CCN(c2ccccn2)CC1)Nc1nnc(C2CCCCC2)s1	-8.4	6.2	4.4%[38.3 µM]	?	12.3%	0.1	14.5
35	CC(C)CCNC(=O)Cc1ccc(NC(=O)N2CCCCc3ccccc32)cc1	-15.3	nt	0.6%	1.5%	nt	-1.1	nt
36	COc1ccc(OC)c(C(=O)CSc2ncc3c(n2)-c2ccccc2N(Cc2ccccc2C)S3(=O)=O)c1	23.9	nt	1.4%	-3.2%	nt	0.8	nt
37	N#Cc1c(N)oc(-c2ccco2)c1-c1ccco1	-3.4	?	-1.0%	25.1µM*	31.6µM*	0.7	3.8
38	COc1ccccc1OCc1ccc(C(=O)NCc2cccnc2)o1	-4.7	-0.6	-1.0%	-1.9%	8.4%	3.3	-16.5
39	COc1ccc(C(CNC(=O)c2ccccc2SC)N(C)C)cc1 (stereo not drawn)	-17.6	-1.9	0.6%	1.3%	9.0%	-0.8	20.8
40	COC(=O)c1c(NC(=O)c2ccc(C)o2)sc2c1CCCCC2	10.8	0.9	?	31.6µM*	14.1µM*	0.5	0.7
41	COc1ccc(C(=O)Oc2ccc(-c3nnco3)cc2)cc1S(=O)(=O)N1CCOCC1	28.7	nt	4.0%	nt	nt	0.7	-11.1
42	Cc1noc(C)c1C(=O)Nc1ccc(S(=O)(=O)N2CCC(C)CC2)cc1	0.8	nt	-0.6%	0.3%	nt	0.2	11.6
43	Cc1ccc(S(=O)(=O)/C(C#N)=C/c2c(N3CCOCC3)nc3c(C)cccn3c2=O)cc1	4.0	?	0.1%	0.8%	-3.6%	0.9	-0.4
44	Cc1ccc(OCCC(=O)Nc2ccccc2C(=O)N2CCCCC2)cc1	-0.6	nt	5.2%	nt	nt	-0.6	-5.4
45	Cc1cc(Cl)ccc1NC(=S)NCC(C)C	-21.4	-0.4	1.9%	-2.4%	9.8%	1.0	-13.3
46	Cc1cc(=O)oc(C)c1C(=O)N1CCCc2ccccc21	-7.8	0.5	-0.5%	-3.8%	17.0%	-0.4	-0.9
47	Cc1cccc(NC(=O)/C(C#N)=C\c2cccnc2)c1	-9.1	1.3	1.7%[38.3 µM]	-1.2%	9.7%	0.5	8.9
48	CCOc1ccc(/C=C/C(=O)NCCc2ccc(OC)c(OC)c2)cc1	12.1	1.0	-2.3%	-2.6%	-1.5%	0.5	-3.4
49	CC(=O)N1CCOc2cc(S(=O)(=O)N3CCN(c4ccccc4)CC3)c(Cl)cc21	15.9	4.2	2.6%	-0.5%	-7.0%	-0.1	-10.1
50	O=C(NC(c1ccccc1)c1ccc2ccccc2n1)C1CCN(CCOc2ccc(Cl)cc2Cl)CC1 (stereo not drawn)	nt	nt	-1.4%	-29.4%	nt	0.2	nt

# (listing goes on)
item	SMILES	TRPML1 blocker	Menin MLL FP FL	PINK1 modulator	ClpP mod	Sfp inh	TRPML1 ag	TRPV1 PAM
51	O=C(Nc1cccc(F)c1)C1CCN(C(=O)c2ccco2)CC1	6.8	2.4	-1.1%	nt	13.5%	0.7	-8.5
52	COc1ccc2[nH]cc(C=O)c2c1	-7.7	0.8	-1.9%	2.1%	-4.5%	0.5	8.6
53	COCCCNC(=O)c1c[nH]c2ccc(S(=O)(=O)N(C)c3ccccc3C)cc2c1=O	3.8	-0.1	1.4%	nt	9.0%	-0.7	-3.1
54	CCn1c(SCC(=O)Nc2c(C)cccc2C)nnc1-c1nonc1NC(C)=O	5.3	nt	0.5%	-5.0%	nt	-1.0	nt
55	N#Cc1c(C#N)c(-c2ccccc2)n(-c2ccc(C(=O)O)cc2)c1N	40.6	-0.4	0.5%	-14.9%	23.7%	-0.2	13.6
56	CCN1CCN(c2nc3c(S(=O)(=O)c4ccc(C)cc4)nnn3c3ccsc23)CC1	21.3	nt	0.8%	-5.6%	nt	1.4	nt
57	CC(NC(=O)CSc1ccccc1)c1ccccc1 (stereo not drawn)	18.0	2.2	0.0%	-0.8%	11.6%	1.6	-2.9
58	COc1ccc(C(C)=O)cc1CSc1nnnn1-c1ccc(O)cc1	3.4	4.8	0.1%	-0.1%	-2.0%	1.0	-8.8
59	Cc1nc2ncnn2c(C)c1CCC(=O)NCc1ccc2c(c1)OCO2	-6.9	9.6	0.9%	-3.8%	6.8%	0.2	-24.4
60	COc1ccccc1NC(=O)NCc1ccc2c(c1)OCO2	nt	1.0	nt	nt	8.4%	nt	-16.3
61	Cc1ccc(S(=O)(=O)N(C)C)cc1NC(=O)c1cc(C(C)(C)C)nn1Cc1ccccc1	14.2	-1.7	2.6%	-5.3%	10.9%	3.8	4.0
